# Arbovirus inh: blocks arbovirus infection | inhibition, % at 10 µM | arbovirus infection cell-based antiviral screen | 0.37% of 200,000 active | AID 1251;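 active = inhibition from about 30%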;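 note: bluetongue infection of BSR cells; cell survival read as ATP light after 72 h; 0% = infected wells without compound and 100% = uninfected wells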
# RecA intein inh: blocks M. tuberculosis RecA intein splicing; cell-free RecA intein splicing, fluorescence; inhibition, %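 (about 9 µM by stock and volumes)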; 0.75% of 290,000 active; in the data active = inhibition above about 30%; inconclusive = no clear call, values can overlap the other calls;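 note: 0% = vehicle wells and 100% = reference inhibitor control wells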
# Target sequence (P9WHJ3 whole entry, looked up): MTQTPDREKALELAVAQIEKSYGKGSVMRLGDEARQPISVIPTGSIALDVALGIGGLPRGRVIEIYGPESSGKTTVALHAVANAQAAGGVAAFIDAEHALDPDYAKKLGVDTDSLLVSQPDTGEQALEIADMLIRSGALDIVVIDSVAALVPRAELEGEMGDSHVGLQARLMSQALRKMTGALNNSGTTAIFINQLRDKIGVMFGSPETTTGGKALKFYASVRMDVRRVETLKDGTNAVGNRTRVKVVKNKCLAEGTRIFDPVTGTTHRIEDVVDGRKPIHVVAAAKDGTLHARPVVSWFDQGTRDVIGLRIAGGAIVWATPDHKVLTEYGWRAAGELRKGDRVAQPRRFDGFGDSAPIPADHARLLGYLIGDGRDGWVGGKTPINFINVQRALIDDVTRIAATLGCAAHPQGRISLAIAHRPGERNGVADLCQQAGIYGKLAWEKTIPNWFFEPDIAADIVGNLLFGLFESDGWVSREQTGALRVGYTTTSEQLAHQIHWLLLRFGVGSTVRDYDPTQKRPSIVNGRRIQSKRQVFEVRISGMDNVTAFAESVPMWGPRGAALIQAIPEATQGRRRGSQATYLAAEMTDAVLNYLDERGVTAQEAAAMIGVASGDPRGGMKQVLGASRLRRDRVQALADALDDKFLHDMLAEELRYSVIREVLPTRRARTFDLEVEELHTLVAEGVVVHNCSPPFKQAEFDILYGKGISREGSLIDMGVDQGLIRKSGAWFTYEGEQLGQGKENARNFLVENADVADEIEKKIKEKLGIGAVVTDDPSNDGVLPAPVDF
# Mtb bLac sens: beta-lactam sensitization of Mtb H37Rv; M. tuberculosis H37Rv growth with meropenem, percent inhibition; hits of this screen are not shown here; inhibition, % at 25 µM; 0.27% of 330,000 active;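 active = about 74% or more and at least 40 points above the plate without the antibiotic, then above 30% in a dose series; inconclusive = first-round hits that could not be retested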;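 note: growth measured after seven days incubation then overnight dye step; 0% = bacteria only wells and 100% = bacteria with antibiotic; twin plates without the antibiotic show which effects depend on it; some results filed as inactive read as strong as hits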
# YopH PTP inh: inhibitors of Yersinia enterocolitica YopH tyrosine phosphatase; fluorescence Ex485/Em525; 0.16% of 140,000 active; inhibition, %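 (about 10 µM by stock and volumes)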;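 active = inhibition of 50% or more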;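 note: controls were vehicle for no effect and minimum signal wells for full effect; inactives centre near -20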
# Mtb H37Rv: M. tuberculosis H37Rv growth inhibitors, H37Rv strain (AID 1626); M. tuberculosis H37Rv growth inhibition; higher % means a stronger effect; inhibition, % at 10 µM; hits with a dose series show IC50 in µM; 0.95% of 220,000 active;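 active = confirmed in a dose series; inconclusive = inhibition above 80% but not taken into the dose series; inactive = below 80% or under 30% at every dose of the series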;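 note: bacteria incubated seven days before Alamar blue readout; 0% = bacteria only wells and 100% = bacteria with antibiotic wells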
# Arbovirus inh repeat: also measured in Arbovirus inh; calls as there; inhibition, %; measured here: 10K subset replicate screen; many hits read low in the repeat;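 first of two repeat runs on a subset; 0% = infected and 100% = uninfected wells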
# Numbers without * were called inactive; ? = inconclusive; . = no result given. These rows are one share of the data; the hit share may differ from the screen's.
SMILES,Arbovirus inh,RecA intein inh,Mtb bLac sens,YopH PTP inh,Mtb H37Rv,others
Cc1cc(C)c2nc(NC(=O)c3ccc4c(c3)OCO4)sc2c1,-1,3.2,2,-9,3%,
CC(C)C(NC(=O)C12CC3CC(CC(C3)C1)C2)C(=O)NC1=NCCS1 (centres undefined),11,0.5,-15,-1,1%,Arbovirus inh repeat=1
O=S(=O)(c1ccccc1)[C@@]1(c2ccccc2)C[C@@H]2ON=C(c3cccc(Br)c3)[C@@H]2C1,.,1.2,-8,.,.,
CC(C)(C)NC(=O)NC(=O)COC(=O)Cc1c(F)cccc1Cl,5,4.4,7,.,3%,
CCCSC1=C(C#N)C(c2ccccc2C)C(C(=O)OC)C(=O)N1 (centres undefined),-3,1.6,-1,-34,-8%,
COc1ccc(NC(=O)ON=C2c3ccccc3-c3ccccc32)cc1,-5,8.5,98,-14,?,
CCCCn1c(O)c(C=NC2CCCCC2N)c(=O)[nH]c1=O (centres undefined),-2,-0.8,-5,3,-15%,
COC(=O)c1c(NC(=O)Cc2ccccc2)sc2c1C(C(=O)OC)CC2 (centres undefined),6,3.0,-2,.,7%,
Cc1cccn2c(=O)c(C=O)c(Cl)nc12,.,-8.5,-8,.,0%,
COc1cc(C(=O)Nc2ccc(N3CCCS3(=O)=O)cc2)c([N+](=O)[O-])cc1OC,.,-0.9,-11,.,.,
Cc1[nH]nc(S(=O)CC(=O)O)c1[N+](=O)[O-] (centres undefined),-6,-1.1,-2,.,5%,
N#CCc1ccc(NS(=O)(=O)c2ccc(N3CCCC3=O)cc2)cc1,-5,-0.3,-2,-36,0%,Arbovirus inh repeat=3
C=CC#CC1(O)CC(C)N(C)CC1C (centres undefined),18,-1.7,9,.,8%,
Cn1c(SCC(=O)N/N=C/c2cccs2)nc2ccccc21,-5,2.3,-4,-28,-6%,
O=C(O)c1cccc2[nH]c(C(F)(F)F)nc12,1,2.4,-20,-40,-4%,
COc1cccc(/C=N/N2C(=O)NC3(CCCCC3)C2=O)c1O,-4,-0.4,3,-13,-5%,
CCN(C(=O)COC(=O)/C(=C/c1ccccc1)n1nnnc1C)C1CCCCC1,.,5.6,8,.,.,
Clc1ccc(C(c2nnnn2C2CCCC2)N2CCN(Cc3ccncc3)CC2)cc1 (centres undefined),-2,-0.1,-1,-31,-2%,
Cc1nc(C)c(C(=O)Nc2nc3c(C)cccc3s2)o1,3,.,69,-44,5%,
NS(=O)(=O)c1ccc(CCNC(=O)CSc2nc3ccccc3c3nc(CCN4CCCCC4)nn23)cc1,-1,0.7,1,.,-1%,
Oc1ccccc1N=Nc1ccccc1O,-30,21,.,.,16%,
Cc1ccc(CSCC(=O)Nc2ccc3c(c2)OCO3)cc1,-11,1.9,74,-5,6%,
Cc1ccc(S(=O)(=O)Nc2ccccn2)cc1[N+](=O)[O-],7,-0.8,0,.,4%,
Cc1ccccc1CO/N=C/c1[nH]ncc1Br,.,1.1,-4,.,4%,
NC(=O)c1cc(Br)cc2c3c([nH]c12)CCCC3,0,-0.6,24,-22,-3%,
# (continued)
SMILES,Arbovirus inh,RecA intein inh,Mtb bLac sens,YopH PTP inh,Mtb H37Rv,others
CC(NCCc1ccc(S(N)(=O)=O)cc1)C(=O)NCc1ccccc1 (centres undefined),.,-0.8,0,.,.,
O=C(Cc1ncn[nH]1)NCCc1ccccc1,-1,0.3,2,-48,-10%,
CCOc1ccc(-n2c(SCC(=O)Nc3cc(OC)c([N+](=O)[O-])cc3C)nc3ccccc32)cc1,54*,0.0,-10,-24,2%,
COc1cccc(/C=C2/C(=O)NN(c3ccccc3)C2=O)c1,.,-2.0,11,.,.,
CN(C)c1cccc(C(=O)NCc2ccc(Cl)cc2)c1,-1,-2.4,6,.,2%,
Cc1ccc(CC(=O)N2CCN(Cc3ccccc3)CC2)cc1,3,-0.1,6,.,4%,
Cc1ncc([N+](=O)[O-])n1CC(=O)Nc1cccc(C(F)(F)F)c1,.,0.1,-1,.,.,
CCC(CC)c1nnc(NC(=O)c2nc3nc(C)cc(C)n3n2)s1,7,-1.0,1,-41,-1%,
COc1ccc(NCc2nnc(SCC(=O)c3ccc(OC)cc3)o2)cc1,-11,1.4,99,-21,?,
N=c1c2c(-c3ccccc3)c(-c3ccccc3)n(Cc3ccco3)c2ncn1CCO,-37,9.8,42,-9,20%,
COc1ccc(NC(=O)COc2cccnc2[N+](=O)[O-])cc1OC,1,-1.9,6,.,3%,
CCOC(=O)c1sc(Nc2nc3ccc(OC)cc3s2)cc1C,-12,-1.4,11,-2,15%,
O=C(CN(C(=O)c1csnn1)c1cccc(Cl)c1)NCCc1ccccc1,.,-0.8,-12,.,.,
COc1ccc(CN2c3cc(S(=O)(=O)N4CCOCC4)ccc3N3CCCC32)cc1 (centres undefined),3,-1.9,-8,-18,-3%,
Cc1ccc(-c2csc(-c3c[nH]c4ccccc34)n2)cc1,-12,4.1,97,-10,71%,
O=C(Oc1ccc(-c2ccccc2)cc1)C1C2CCCCC21 (centres undefined),-9,0.1,66,-21,47%,
Cc1ccc(Cn2nc(C)c(NC(=O)C3(C)CC3(Br)Br)c2C)cc1 (centres undefined),1,1.1,-3,25,-4%,
COc1ccccc1C(=O)Nc1nnn(C)n1,-1,-1.2,-1,-50,-5%,Arbovirus inh repeat=0
CN(C)S(=O)(=O)c1ccc(N2CCCC2)c(C(=O)Nc2ccccc2F)c1,.,-2.9,-3,.,.,
Cc1cc(Cl)ccc1C(=O)C1CCCN(C(=O)c2cnn(C(C)C)c2)C1 (centres undefined),.,2.2,0,.,.,
O=C(O)c1ccc(-n2nc(C(F)(F)F)cc2-c2cccs2)cc1,.,0.9,1,.,.,
O=C(/C=C/c1ccccc1)NC(=S)NNC(=O)c1cccnc1,-27,-0.5,6,-23,-13%,
COc1ccc(-c2[nH]ncc2N=Nc2ccccc2)cc1,-19,4.7,0,.,18%,
CC12CCC(C(=O)NC3CCCC3)(CC1=O)C2(C)C (centres undefined),15,1.1,-5,-3,-7%,
CC(=O)Nc1cccc(NC(=S)Nc2cccc(Cl)c2Cl)c1,-1,-0.4,0,.,-4%,
# Carrying on.
SMILES,Arbovirus inh,RecA intein inh,Mtb bLac sens,YopH PTP inh,Mtb H37Rv,others
Cc1ccc(C(=O)COC(=O)c2c(C)cc(=O)oc2C)cc1[N+](=O)[O-],-5,-4.3,4,-8,2%,
COC(=O)C1=CCCN(C)C1,1,4.3,2,.,-3%,
CCOc1ccc(NC(=O)CC2C(=O)N(CC)C(=S)N2NC(=O)c2ccncc2)cc1 (centres undefined),.,-2.3,-3,.,-7%,
CS(=O)(=O)Oc1ccc(Br)c2cccnc12,.,0.0,-2,.,2%,
CCCNC(=O)NC(=O)CSc1nncs1,18,-0.6,-2,.,-11%,
CCN(CC)c1cnn(C/C(=N\OC)c2ccc(Cl)cc2)c(=O)c1Br,-6,9.4,100,6,?,
COC(=O)c1cnc(Oc2ccc(NC(=O)NC(=O)c3c(OC)cccc3OC)cc2)cc1C(F)(F)F,.,0.4,87,.,80%,
CCOC(=O)c1ccc(-c2c(-c3cc(OC)c(OC)c(OC)c3)noc2C)cc1F,.,0.9,-2,.,.,
COc1ccc(OCCC(=O)OCC(=O)NC(=O)NC(C)C)cc1,-2,-0.5,3,-25,6%,
CCn1cc(S(=O)(=O)c2ccc(C)cc2)c(=O)c2cc(F)c(N3CCN(C)CC3)cc21,.,-1.4,-4,.,.,
Cc1cc(C)n(-c2ccc(C(=O)Nc3ccc4c(c3)OCCO4)cc2)n1,-9,3.6,75,-14,-1%,
O=C(Nc1cc(=O)[nH]c(=O)[nH]1)c1cccc(C(F)(F)F)c1,.,-0.3,-1,.,.,
COc1ccc(OC)c(-c2csc3nnc(SCC(=O)Nc4ccc(NC(C)=O)cc4)n23)c1,6,-5.1,-4,-31,0%,
CCCCNC(=O)/C(=C/c1ccco1)NC(=O)c1ccco1,.,-0.4,-18,.,.,
CCOCCCn1c(SCC(=O)Nc2oc(C)c3c(C)n[nH]c(=O)c23)nnc1-c1ccncc1,.,-0.7,-5,.,.,
C/C(=N\Nc1nc2ccccc2s1)c1cccs1,-5,6.9,88,-29,77%,
COc1ccc(C(=O)O/N=C(\N)c2ccc(Cl)cc2)cc1,.,4.8,8,.,.,
Cc1ccc(S(=O)(=O)c2cnc(-c3ccccc3)nc2N2CCN(C)CC2)cc1,-14,.,1,.,6%,
CC(C)(C)c1ccc(C(=O)OCCN2CCCCC2)cc1,.,0.3,1,.,.,
CN1CCN(c2nc(-c3ccc(Cl)s3)cs2)CC1,-2,-3.1,-10,.,.,
CCc1cc2c(N3CCCCC3)ncnc2s1,16,3.0,35,-11,5%,
COc1ccc2cc(C(C)C(=O)Nc3cccc(S(=O)(=O)N(C)C)c3)ccc2c1 (centres undefined),.,-3.6,-1,.,.,
COc1ccccc1NC(=O)N1CCN(C(=O)c2ccco2)CC1,.,-0.1,-5,.,.,
O=C(NCc1nnc(SCC(=O)N2CCCC2)o1)c1c(F)cccc1F,.,-1.6,-16,.,.,
Cc1ccc(-c2nnc3c(C(F)(F)F)nc4ccccc4n23)cc1,-1,0.8,-5,-31,1%,

# Six compounds picked at random from those above, as already listed:
SMILES,Arbovirus inh,RecA intein inh,Mtb bLac sens,YopH PTP inh,Mtb H37Rv,others
CN1CCN(c2nc(-c3ccc(Cl)s3)cs2)CC1,-2,-3.1,-10,.,.,
CCc1cc2c(N3CCCCC3)ncnc2s1,16,3.0,35,-11,5%,
COC(=O)c1cnc(Oc2ccc(NC(=O)NC(=O)c3c(OC)cccc3OC)cc2)cc1C(F)(F)F,.,0.4,87,.,80%,
CCCCNC(=O)/C(=C/c1ccco1)NC(=O)c1ccco1,.,-0.4,-18,.,.,
Cc1ccc(C(=O)COC(=O)c2c(C)cc(=O)oc2C)cc1[N+](=O)[O-],-5,-4.3,4,-8,2%,
CCN(CC)c1cnn(C/C(=N\OC)c2ccc(Cl)cc2)c(=O)c1Br,-6,9.4,100,6,?,

# Next part
SMILES,Arbovirus inh,RecA intein inh,Mtb bLac sens,YopH PTP inh,Mtb H37Rv,others
COc1cc(F)ccc1S(=O)(=O)N1CCN(C23CC4CC(CC(C4)C2)C3)CC1,-7,1.0,5,-9,-11%,
O=C(NC1CCCCC1)C1CCN(c2cnccn2)CC1,-1,-0.6,-1,-37,1%,
COc1ccc(-c2cc(C)no2)cc1S(=O)(=O)Nc1ccccc1,.,-2.7,-6,.,.,
CN(c1cccc(NS(=O)(=O)c2ccccc2)c1)S(C)(=O)=O,5,0.9,8,.,-2%,
COc1ccc(CN2CC(C(=O)NCCC(C)C)CC2=O)cc1 (centres undefined),2,-1.4,4,.,0%,
COC(=O)CSc1nnc(NC(=O)C2CC(=O)N(c3ccc(F)cc3)C2)s1 (centres undefined),.,3.3,?,.,.,
O=C(N/C(=C/c1ccco1)C(=O)N1CCCC1)c1cccs1,8,-3.9,-5,-22,-9%,
CCCn1nnc(NC(=O)c2ccc(Br)o2)n1,5,-3.3,-9,-25,7%,
C=C(C)Cn1c(SCCN2CCOCC2)nc2c1c(=O)[nH]c(=O)n2C,1,0.0,-1,-5,-4%,
O=C(O)c1cc(Nc2cc(Cl)c3nonc3c2[N+](=O)[O-])ccc1O,.,97*,9,.,.,
CCOC(=O)CSc1nnc(-c2ccc(OC)cc2)n1CC,4,1.1,9,-20,-9%,
CCOC(=O)Cc1c(C)nc(SC)[nH]c1=O,-1,-2.4,2,.,-11%,
Cc1ccc(CN2CCN(Cc3ccncc3)CC2CCO)o1 (centres undefined),6,-12,-3,.,-1%,
O=C(c1ccco1)N1CCN(Cc2cccc(F)c2)CC1,11,-0.6,-10,-19,-5%,
CSc1nc(O)c(C(c2ccc(F)cc2)c2c(O)nc(SC)[nH]c2=O)c(=O)[nH]1,.,-3.3,14,.,.,
Cn1c(=O)n(-c2ccc(Cl)cc2)c(=O)c2c3c(sc21)COC(C)(C)C3,9,-0.7,6,-23,-4%,
O=C(CSC1=NCCS1)N1CCCC1,12,0.9,-15,-21,-2%,
COc1ccc(CCNC(=O)c2oc3ccc(S(=O)(=O)N4CCOCC4)cc3c2C)cc1OC,2,1.4,-6,-33,-1%,Arbovirus inh repeat=1
Cc1ccc(-c2ccc(=O)n(CC(=O)NCCN3C(C)CCCC3C)n2)cc1 (centres undefined),0,0.2,3,-18,-13%,
COc1ccccc1CNC(=O)CCCNS(=O)(=O)c1cccc2nsnc12,10,0.4,-7,-20,-8%,
Cc1ccccc1-n1nc(-c2ccc(N)cc2)cc1N,1,5.2,-7,-12,0%,Arbovirus inh repeat=4
CCN(CC)C(=O)CN1CCC(c2nc3cc(C)c(C)cc3[nH]2)CC1,.,-2.9,-7,.,.,
CCOC(=O)N1CCN(C(=O)c2ccc(N3CC4CC(C3)c3cccc(=O)n3C4)c(NC(=O)c3ccc(F)cc3)c2)CC1 (centres undefined),.,2.8,1,.,.,
O=C(CSc1ccc(Cl)cc1)Nc1nnc(-c2ccco2)o1,.,-1.1,37,.,.,

# Source: PubChem BioAssay (several laboratories)
